# From PubChem BioAssay
# N370S GC mod: qHTS Assay for Inhibitors and Activators of N370S glucocerebrosidase as a Potential Chaperone Treatment of Gaucher Disease. Lysosomal acid glucosylceramidase (Homo sapiens), P04062. N370S GC spleen homogenate, 4MU-glucoside fluorescence. Potency, µM (top dose mostly 59.4 µM), without a hit: at the highest dose activity change, negative = inhibition, most hits filed as inhibitors. 330,000 compounds, 0.092% hits. AID 2101, 2009;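 note: 0% = full enzyme activity and -100% = no enzyme basal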
# KAT2A inh: qHTS Assay for Inhibitors of GCN5L2; Histone acetyltransferase KAT2A (Homo sapiens), Q92830; GCN5L2 HAT assay, ThioGlo1 CoA-SH fluorescence; Potency, µM (titrated, usually from 58.9 µM), without a hit: top-dose activity change, negative = inhibition, hits mostly inhibitors; 390,000 compounds, 0.21% hits; AID 504327, 2011
# Target sequence (Q92830 whole entry, looked up): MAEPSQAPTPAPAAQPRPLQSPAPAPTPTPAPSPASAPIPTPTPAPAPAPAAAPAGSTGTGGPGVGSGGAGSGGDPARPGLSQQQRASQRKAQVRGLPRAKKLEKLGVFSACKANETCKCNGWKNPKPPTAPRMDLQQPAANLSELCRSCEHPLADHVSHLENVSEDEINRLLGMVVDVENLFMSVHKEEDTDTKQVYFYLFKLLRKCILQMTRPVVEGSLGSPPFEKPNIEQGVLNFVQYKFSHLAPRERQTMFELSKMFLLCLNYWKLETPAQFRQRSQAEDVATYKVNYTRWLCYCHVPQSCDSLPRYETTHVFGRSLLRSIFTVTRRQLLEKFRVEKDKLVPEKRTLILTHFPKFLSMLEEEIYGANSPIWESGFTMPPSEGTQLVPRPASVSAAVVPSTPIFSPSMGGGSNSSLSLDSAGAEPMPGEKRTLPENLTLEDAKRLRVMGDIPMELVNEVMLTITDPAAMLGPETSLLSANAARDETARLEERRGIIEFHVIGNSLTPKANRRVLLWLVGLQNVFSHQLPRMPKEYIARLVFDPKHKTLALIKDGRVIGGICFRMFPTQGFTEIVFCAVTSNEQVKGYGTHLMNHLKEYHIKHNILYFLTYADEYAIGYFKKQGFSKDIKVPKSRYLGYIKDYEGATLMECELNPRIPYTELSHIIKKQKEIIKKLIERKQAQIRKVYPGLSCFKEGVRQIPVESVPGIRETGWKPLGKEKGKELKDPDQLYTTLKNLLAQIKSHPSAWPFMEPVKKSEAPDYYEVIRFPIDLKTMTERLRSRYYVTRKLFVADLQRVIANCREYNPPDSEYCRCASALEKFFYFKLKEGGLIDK
#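 Enzyme at 20nM final was mixed with library compounds for 15 min at room temperature. Peptide H3(1-25) at 75uM, acetyl-CoA at 70uM and ThioGlo1 at 50uM were then added. Plates were read immediately and after 20 min (Ex340nm/Em540nm).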
# The depositor's hits bear a star; ? = inconclusive; · = not tested or not shown; [ ] = dose if it differs, or a comment. Calls come from the whole dose curve; as a rule, active = well fitted curve in the direction sought with a large enough effect; inconclusive = small, poorly fitted or top-dose-only effect, or another doubt; inactive = no such curve, though single readings can be large; an effect the other way counts as inactive or inconclusive. Unless noted, % is set by controls: 0 for no effect and ±100 for the full control effect; potency is the fitted concentration of half-maximal effect.
Structure | N370S GC mod | KAT2A inh
COc1cc(OC)cc(C(=O)N[C@H](C(=O)OCC(=O)Nc2ccc3c(c2)OCO3)C(C)C)c1 | · | -6%
COc1ccc(-c2csc3[nH]c(=S)n(-c4ccccc4)c(=O)c23)cc1OC | -7% | -8%
Cc1ccc(S(=O)(=O)N(C)C)cc1NC(=O)COC(=O)c1ccc2c(c1)OCCO2 | 1% | -7%
COC(=O)c1ccccc1NC(=O)Cn1cnc2ccc(S(=O)(=O)N3CCC(C)CC3)cc2c1=O | -2% | -7%
COc1ccccc1NC(=O)c1cc2cc(Br)ccc2cc1O | 6% | -6%
COC(=O)CNc1n[nH]c(=S)[nH]c1=O | 3% | -8%
CCCn1c(=O)c2[nH]cnc2n(-c2ccccc2C)c1=O | 22% | -4%
Cc1occc1C(=O)NNC(=O)NC12CC3CC(CC(C3)C1)C2 | -11% | -4%
COc1cccc(CC(=O)OCC(=O)N(C)CC(=O)Nc2ccccc2Cl)c1 | · | -1%
CC1S/C(=N/N=C2CCCCC2)NC1=O (stereo not drawn) | 8% | 25%
COc1ccc(C(=O)NCCN2CCOCC2)c(OC)c1 | -3% | -5%
O=C(O)c1ccn2c(C(=O)c3ccccc3)c(-c3ccccc3)cc2c1 | 26% | -7%
CCOc1ccc(CN(C)C(=O)CNC(=O)C2CCCCC2)cc1 | -5% | -2%
Cc1ccc(N2CC(C(=O)N3CCOCC3)CC2=O)cc1C (stereo not drawn) | -12% | -7%
O=C(O)c1ccc(COc2ccc(CO)cc2Cl)cc1 | -1% | -13%
COc1ccc(-c2nnc(SCC(=O)NC3CC3)o2)c(OC)c1 | -7% | 2%
Fc1ccc(/C=N/n2c(C3CCCCC3)n[nH]c2=S)cc1 | 29% | -11%
Cc1ccc(C(=O)N/C(=C\c2cccs2)c2nc3ccccc3[nH]2)cc1 | 29% | 54%
COc1ccc(/C=C/C(=O)Nc2ccccc2C(N)=O)cc1S(=O)(=O)N1CCOCC1 | ? | ?
COc1ccccc1NC(=O)Cn1c(=O)n(-c2ccc(C)cc2)c(=O)c2ccc(C(=O)NCc3ccco3)cc21 | · | -13%
COC(=O)c1cc(OC)c(OC)cc1N=CC1=C(O)CC(C)(C)CC1=O | -5% | 0%
CN(C(=O)COC(=O)C1=COCCO1)C1(C#N)CCCCC1 | · | 0%
CC1C(=O)N2CCCc3cc(NS(C)(=O)=O)cc1c32 (stereo not drawn) | -5% | -2%
Cc1ccc(Nc2nc(N/N=C\c3ccc4c(c3)OCO4)nc(N3CCOCC3)n2)cc1 | -7% | -5%
COc1ccc(CNC(=O)c2ccc3c(c2)N(C)C(=O)CS3=O)cc1 (stereo not drawn) | 5% | 1%
Cn1cc(S(=O)(=O)N2CCCC2)cc1C(=O)Nc1ccc(C(F)(F)F)cc1 | · | -9%
O=C(Cc1ccc(-c2ccccc2)cc1)NCCS(=O)(=O)N1CCN(c2ccc(F)cc2)CC1 | · | 2%
CC(C)OC(=O)CN1C(=O)C(C)(C)Oc2ccc(C(=O)NC(C)(C)C)cc21 | 11% | -11%
N#Cc1c(-c2ccccc2)ccnc1Oc1ccccc1 | -15% | -15%
Cc1c(C(N)=O)cc([N+](=O)[O-])cc1[N+](=O)[O-] | -4% | -12%
COc1ccccc1C(=O)Nc1ccnn1C1CCN(CC2CC=CCC2)CC1 (stereo not drawn) | 2% | -1%
Cc1ccc(C(=O)CSc2nnc(COc3ccccc3)o2)cc1 | -8% | -6%
Cc1cccc(OCCn2cnc(Cl)c2Cl)c1 | 8% | -1%
CCOC(=O)/C(C#N)=C/c1c(N2CCN(CC)CC2)nc2c(C)cccn2c1=O | -8% | -3%
CC(=O)N=c1sc(C(C)(C)C)c(C)n1C | 4%[2.35 µM] | -1%
CCC(CO)Oc1cc(NCc2ccncc2)c2ncn(C(C)C)c2c1 (stereo not drawn) | · | -1%
Cc1ccc(N2C(=O)N(CC(=O)Nc3cccc([N+](=O)[O-])c3C)C(=O)C2C)cc1 (stereo not drawn) | -4% | -5%
CCS(=O)(=O)N1Cc2ccccc2CC1C(=O)OCC(=O)Nc1ccc(C)cc1 (stereo not drawn) | ? | -3%
O=C(Nc1ccc(O)cc1)c1ccc2c(c1)C(=O)N(Cc1ccccc1)C2=O | -6% | -9%
COc1ccc(S(=O)(=O)NC(C)C(=O)NCc2ccccn2)cc1OC (stereo not drawn) | -2% | -3%
CCOC(=O)C1=C(CSc2nnnn2C)N(C)C(=O)NC1c1ccccc1 (stereo not drawn) | 6% | -3%
O=C(CNc1ccccc1OC(F)F)N1CCc2ccccc21 | 2% | ?
Cc1ccc(NC2c3ncccc3C(=O)N2C2CCCCC2)cc1C (stereo not drawn) | 2% | 1%
COc1ccc(-n2nc(C(=O)NCC(=O)N3CCN(Cc4ccc5c(c4)OCO5)CC3)c3ccccc3c2=O)cc1OC | -3% | -8%
Cc1ccc2cccc(OCC(=O)NCCC3=CCCCC3)c2n1 | · | -4%
CC1C(O)=C(c2nc3ccccc3[nH]2)C(=N)N1c1ccccc1 (stereo not drawn) | 15% | -6%
NC(=O)CCn1c(C(=O)c2cc(Cl)c(N)c(Cl)c2)c2ccccc2[n+]1[O-] | 1% | -1%
CCNS(=O)(=O)c1ccc(CCC(=O)Nc2ccc3c(c2)OCO3)cc1 | 1% | 9%
C=CCN(C(=O)c1ccc2snnc2c1)c1ccccc1 | 0% | -5%
O=C(NCc1ccc(Cl)cc1)NCc1noc2ccccc12 | · | -13%
COC(=O)c1sc(SC)c(-c2ccon2)c1C | 7% | -6%
CC12CCC(C(=O)NCc3ccccc3)(OC1=O)C2(C)C (stereo not drawn) | 4% | -4%
COc1ccc(Cc2nnc(SCC(=O)Nc3ccc(C)c(C)c3)o2)cc1OC | -13% | -2%
Cc1ccc(S(=O)(=O)N(C)C)cc1NC(=S)Nc1cccc2ccccc12 | -2% | -1%
O=C(NCCN1CCOCC1)c1cc(Sc2cccc(Cl)c2)nc2ccccc12 | -22% | 19%
CCOC(=O)CC(NC(=O)c1ccc(C)cc1)c1ccc(C)cc1 (stereo not drawn) | 16% | -1%
Cc1cccc(-n2ncc3c(NC4CCCC4)ncnc32)c1 | · | -5%
COc1ccc(N2C(=O)CC(c3ccccc3)CC2=O)cc1 | · | 2%
Cn1nc(C(=O)OCC(=O)Nc2ccccc2OC(F)F)c2ccccc2c1=O | · | -6%
COCCn1c(SCC(=O)N2CCCCCC2)nnc1-c1ccco1 | 1% | -5%

# (continued)
Structure | N370S GC mod | KAT2A inh
CCOc1cc(/C=C2\C(=N)N3N=C(C)SC3=NC2=O)ccc1OCCOc1cccc(OC)c1 | -6% | -19%
CCn1cnc2c1c(=O)n(CC(=O)NCc1ccccc1)c(=O)n2Cc1ccccc1 | 9% | -6%
CCOc1ccccc1NC(=O)CCCNC(=O)Cn1cnc2sc(C)c(C)c2c1=O | -2% | 1%
O=c1c2ccccc2n2c(-c3cccc(Cl)c3)nnc2n1Cc1ccccc1 | -2% | 3%
O=S(=O)(Nc1cccnc1)c1ccc(Cl)cc1 | -3% | 1%
Cc1cc(-c2csc(N)n2)c(C)n1CCC(C)C | -18% | -2%[0.501 µM]
Cc1ccc(-c2nnn(CCOc3cccc(Br)c3)n2)cc1 | 13% | -2%
CC(C)Oc1ccc(NC(=O)C2CCCNC2=O)cc1 (stereo not drawn) | 4% | -4%
CCc1cc(=O)oc2cc(C)cc(OCC(=O)NCc3cccnc3)c12 | 4% | -2%
O=C(c1ccc(F)cc1)N1CCC(N2CCCCCC2)CC1 | 7% | 0%
Cc1cc(Cl)cc(Cl)c1CNc1c([N+](=O)[O-])c(=O)oc2ccccc12 | 3% | -1%
NS(=O)(=O)c1ccc(-n2nncc2C23CC4CC(CC(C4)C2)C3)cc1 | 5% | -3%
COc1ccc(CNC(=O)C2CCN(c3nc4ccc(C)cc4[nH]3)CC2)cc1 | · | -1%
C/C(CC(=O)Nc1cc(Cl)ccc1C)=N\NC(=O)C(=O)N1CCCC1 | 21% | -5%
COC(=O)C1=C(C)N(C2CCCCC2)C(=O)/C1=C\c1cccs1 | 3% | -2%
CC(C)[C@H](NC(=O)CCCn1nnc2ccccc2c1=O)C(=O)O | -11% | 0%
O=C(N1CCCCC1)C1(c2ccccc2)CCOCC1 | 7% | -2%
O=C(O)C1(P(=O)(c2ccc(Cl)cc2)c2ccc(Cl)cc2)CC1 | 2% | 2%
O=C1N/C(=C/c2cccn2-c2ccc(F)cc2)C(=O)N1Cc1ccccc1 | 5% | -5%
CCOC(=O)c1csc(NC(=O)c2cc(=O)c3ccccc3o2)n1 | -10% | -6%
CCOC(=O)C1=C(O)/C(=C/c2ccc(OCC(=O)O)c(OC)c2)SC1=Nc1ccc(OC)cc1 | 11% | -4%
C/C(Cc1ccccc1)=N\NC(=O)CNC(=O)Cc1ccccc1 | -7% | -9%
COC(=O)[C@@H](NC(=O)Nc1ccc2c(c1)OCCO2)C(C)C | 3% | -3%
O=c1cc(CSc2nnc(C3CC3)n2Cc2ccccc2)nc2sccn12 | -12% | -4%
CCc1ccc(-c2nc(SCC(=O)N(CCOC)c3c(N)n(Cc4ccccc4)c(=O)[nH]c3=O)n[nH]2)cc1 | -3% | -1%
O=C(CSc1nnnn1C1CCCCC1)N1CCc2ccccc21 | 5% | 0%
COc1ccc(CNC(=O)C(c2ccco2)N(C(=O)CNS(=O)(=O)c2ccccc2)c2ccccc2C)cc1 (stereo not drawn) | -4% | -10%
Cn1ncc(Cl)c1C(=O)NCc1ccco1 | 9% | -9%
Cc1cc(C(=O)NC2CC(C)(C)Cc3c2cnn3-c2cccc(F)c2)nn1C (stereo not drawn) | -2% | -24%
CCOC(=O)C1=C(COC(=O)CNC(=O)c2ccc(C)cc2)NC(=O)NC1C (stereo not drawn) | 0% | -9%
On1c(-c2ccccc2)nc2ccccc21 | 7% | -2%
O=C(O)c1ccccc1-c1nc2cc(Cl)ccc2c(=O)n1O | -6% | -5%
CN(C)S(=O)(=O)c1cccc(NC(=O)Cn2cc(C(F)(F)F)cc(Cl)c2=O)c1 | -1% | -3%
O=C(Cc1ccccc1)NCC(=O)N1CCCCC1 | 14% | 15%
O=P(Cc1nnco1)(c1ccccc1)c1ccccc1 | -4% | -1%
O=C(O)CC(CC(=O)Nc1ccc(-n2ccc(C(F)(F)F)n2)cc1)c1ccccc1 (stereo not drawn) | -18% | -8%
COc1cc2c(cc1NC(=O)COC(=O)C(CCSC)NC(=O)c1ccccc1Cl)oc1ccccc12 (stereo not drawn) | ? | -5%
CCOC(=O)C1=C(C)N(CC)C(=S)NC1c1ccccc1OC(F)F (stereo not drawn) | 2% | -6%
CC(=O)c1ccc(NC(=O)CN2CCN(c3ncccn3)CC2)cc1 | · | -4%
Cc1cc(C)n(C(=O)CNC(=O)Cc2ccccc2)n1 | 10% | -7%
COc1ccc(Cl)cc1NC(=O)C1(c2cccs2)CCOCC1 | -5% | -9%
CCOC(=O)c1cccc2c1N[C@@H](c1ccc(F)cc1)[C@H]1CC=C[C@@H]21 | · | -10%
CCNC(=S)N(CCc1ccc(S(N)(=O)=O)cc1)C1CC(=O)N(c2ccccc2)C1=O (stereo not drawn) | -16% | 1%
COc1ccccc1NC(=O)C1=C(C)Nc2nnnn2C1c1ccccc1OC (stereo not drawn) | 17% | -3%
CC(=O)c1cccc(NC(=S)NC(=O)C(C)C)c1 | 2% | -5%
CCOC(=O)N1CCN(c2c(NCCCN(C)c3ccccc3)c(=O)c2=O)CC1 | -27% | 0%
CCOCC(=O)Nc1cc(C(=O)NCCc2ccccc2)ccc1Cl | 8% | 12%
CCN1CCN(C(=S)NC(=O)c2cc(OC)c(OC)c(OC)c2)CC1 | · | 0%
O=C(NCCN1CCCC1)C1COc2ccccc2O1 (stereo not drawn) | -5% | -11%
O=C(COC(=O)CSc1ccc2ccccc2c1)NC1CCCC1 | -1% | -13%
CC(C)(C)n1ncc2c(=O)n(CC(=O)Nc3ccc(Cl)cc3)cnc21 | 24% | -4%
CCN(CC)C1CCN(C(=O)c2cc(COc3cccc4cccnc34)on2)C1 (stereo not drawn) | -7% | -7%
COC(=O)C1=C(C)NC(=O)NC1/C=C/c1ccccc1 (stereo not drawn) | -1% | -1%
COc1cc(-c2nnc(SCC(=O)N(Cc3ccccc3)C(C)(C)C)o2)cc(OC)c1OC | ? | -14%
CCCCC(=O)Nc1ccc2c(c1)oc1ccccc12 | 15% | -5%
C[C@]12C=CC(=O)C=C1CCC1C3CC[C@](O)(C(=O)CO)[C@@]3(C)CC3OC312 (stereo partly drawn) | 12% | -7%
CC(=O)N1CCc2cc(S(=O)(=O)CCC(=O)NCc3ccco3)ccc21 | 6% | -3%
CN(C)CCCN(CCCNC(=O)/C=N/O)Cc1ccccc1 | -7% | -4%
Cc1cccc(OCC(=O)OCC(=O)Nc2sccc2C(N)=O)c1 | · | -6%

# Full records, looked up by structure:
# `CC(C)Oc1ccc(NC(=O)C2CCCNC2=O)cc1` (stereo not drawn) in the list: N370S GC mod: 4%; KAT2A inh: -4%
# `COc1ccc(Cl)cc1NC(=O)C1(c2cccs2)CCOCC1` in the list: N370S GC mod: -5%; KAT2A inh: -9%

# These rows are one share of the data, and most or all hits are left out here.
